TRPML1 inh = qHTS for Inhibitors of the Human Mucolipin Transient Receptor Potential 1 (TRPML1). Mucolipin-1 (Homo sapiens), Q9GZU1. TRPML1-inducible cells, Ca2+ dye fluorescence, FDSS; hits give low values; inhibition of EC80 agonist-evoked calcium signal. activity change, negative = inhibition, % (test concentration not listed). actives 0.02% (n = 390,000). AID 624415, 2012; in the data active means activity change below about -50%; inconclusive means about -30% to -50%; inactive means above about -30%;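 note: stimulus is agonist 54-4 at its EC80 concentration; % is set by controls: 0 for no effect and ±100 for the full control effect; compound concentration not given in the record; the text of the record puts the active cut at -80%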
Target sequence (Q9GZU1 whole entry, looked up): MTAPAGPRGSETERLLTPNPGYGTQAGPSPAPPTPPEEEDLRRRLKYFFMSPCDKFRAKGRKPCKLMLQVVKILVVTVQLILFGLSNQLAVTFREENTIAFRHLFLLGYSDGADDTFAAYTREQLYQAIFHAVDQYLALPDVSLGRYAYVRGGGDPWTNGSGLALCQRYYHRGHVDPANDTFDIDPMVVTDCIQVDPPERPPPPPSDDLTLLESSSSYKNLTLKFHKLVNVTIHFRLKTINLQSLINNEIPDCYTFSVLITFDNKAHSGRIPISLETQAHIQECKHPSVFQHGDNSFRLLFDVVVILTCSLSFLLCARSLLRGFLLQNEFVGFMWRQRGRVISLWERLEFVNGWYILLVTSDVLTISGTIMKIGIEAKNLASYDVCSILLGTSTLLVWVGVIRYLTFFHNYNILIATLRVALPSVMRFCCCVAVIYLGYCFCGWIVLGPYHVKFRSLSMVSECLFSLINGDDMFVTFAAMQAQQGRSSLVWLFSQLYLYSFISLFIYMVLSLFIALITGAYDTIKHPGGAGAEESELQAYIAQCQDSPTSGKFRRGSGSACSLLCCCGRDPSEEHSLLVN
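Calcium fluorescence in TRPML1-DL cells induced overnight with Tet: a 110 s read after compound pin addition, then a 110 s antagonist read after challenge with 54-4 at 4 uM final (EC80).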
TRPML1 ag = qHTS for Agonists of the Human Mucolipin Transient Receptor Potential 1 (TRPML1). AID 624414, 2012. Mucolipin-1 (Homo sapiens), Q9GZU1. actives 0.12% (n = 410,000). activation, % (test concentration not listed). TRPML1-expressing cells, Ca2+ dye fluorescence, FDSS; host cell line not named in the record; reference of the full effect not given here; in the data active = activation above about 50%; inconclusive = about 30% to 50%; inactive = below about 30%; note: 0% is about no effect; the text of the record puts the active cut at 80%
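Tet-induced TRPML1-DL cells, 1,500 per well, cultured overnight, were loaded with a no-wash Ca2+ dye for 45–90 min. Calcium fluorescence was recorded on the FDSS for 110 s after compound addition, before the EC80 agonist (4 uM 54-4) was added.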
* hit, by the source's call. A portion of the library, so the mix of outcomes need not match the whole.

SMILES	TRPML1 inh	TRPML1 ag
COc1ccc(-n2ncc3c2ncn2nc(-c4ccc(OC)c(OC)c4)nc32)cc1	-1	-0.1
Cc1cccc(N2CCN(C(=O)C3CCN(S(=O)(=O)c4cn(C)cn4)CC3)CC2)c1C	12	1.5
Cc1ccc(Cl)cc1NC(=O)Cn1c(=O)n(C(C)C)c(=O)c2oc3ccccc3c21	14	-1.0
O=C(CN1C(=O)CSc2ccc(S(=O)(=O)N3CCCC3)cc21)NCc1ccccc1Cl	8	1.6
CC(=O)c1cccc(NC(=O)CCCSc2nc(-c3ccco3)cc(C(F)(F)F)n2)c1	8	2.2
O=C1C(=O)N(C2CCN(C(=O)c3ccccc3Cl)CC2)CCN1Cc1ccc(F)cc1	11	0.0
CCc1ccc(Nc2nnc(-c3cc4cc(OC)ccc4oc3=O)s2)cc1	2	0.6
O=C(COc1ccccc1F)NC1CC(=O)N(c2ccc3c(c2)OCCO3)C1 (stereo not given)	-19	0.2
Cc1cccc(N2CCN(C(=O)Cn3ncc4c3-c3ccccc3OC4)CC2)c1C	10	2.0
Cc1nnc2c(Nc3cccc(O)c3)nc3ccccc3n12	5	0.0
CCn1c(C(=O)N2CCCC(C(=O)NCCCOC)C2)cc2sccc21 (stereo not given)	6	-0.5
COc1ccc(CNC(=O)CC(c2ccc(OC)c(OC)c2)N2Cc3ccccc3C2=O)cc1 (stereo not given)	-12	2.6
O=C(Nc1ccc(F)c(Cl)c1)N1CCN2CCCCC2C1 (stereo not given)	5	1.5
CCOc1ccc(-c2cn3c(n2)sc2cc(C(=O)NCCCN4CCCCC4)ccc23)cc1	-1	-0.3
CC(=O)c1ccc(NC(=O)c2cc3c([nH]c2=O)CC(c2ccccc2)CC3=O)cc1 (stereo not given)	-11	1.4
Cc1cccc(NC(=O)c2sc3cccc(Cl)c3c2Cl)c1	49	2.6
O=C(CSc1nnc(-c2ccccc2Br)n1-c1ccccc1)c1ccc(F)cc1	56	5.3
CCN(CCCNC(=O)CSc1cc(=O)n(C)c2ccccc12)c1ccccc1	0	0.0
COc1ccc(C)cc1NC(=O)C(CCSC)NS(=O)(=O)c1ccc2c(c1)oc(=O)n2C (stereo not given)	-6	0.2
CCN(CC)C(=O)Cn1cc(SCC(=O)Nc2cccc(C)c2)c2ccccc21	-8	-0.2
Cc1c(F)cccc1NS(=O)(=O)c1cccs1	8	1.4
CC1CCN(c2ccc(NC(=O)c3cccc(Cl)c3)cc2C(=O)O)CC1	-2	-1.0
O=C(Cn1cc(S(=O)(=O)Cc2ccccc2Cl)c2ccccc21)Nc1cccc(C(F)(F)F)c1	27	1.5
COc1ccccc1CCNC(=O)C(=O)NCC(c1cccs1)S(=O)(=O)c1ccccc1 (stereo not given)	5	0.3
CC1CCC(N2CC(=O)N(C3CCCC3)C(c3ccc(Cl)cc3)C2=O)CC1 (stereo not given)	0	1.0

Given with two lines to a compound: twelve of the compounds above.
Sequence of screens – TRPML1 inh	TRPML1 ag
> O=C(COc1ccccc1F)NC1CC(=O)N(c2ccc3c(c2)OCCO3)C1 (stereo not given)
→ -19	0.2
> Cc1cccc(N2CCN(C(=O)Cn3ncc4c3-c3ccccc3OC4)CC2)c1C
→ 10	2.0
> Cc1nnc2c(Nc3cccc(O)c3)nc3ccccc3n12
→ 5	0.0
> CCn1c(C(=O)N2CCCC(C(=O)NCCCOC)C2)cc2sccc21 (stereo not given)
→ 6	-0.5
> COc1ccc(CNC(=O)CC(c2ccc(OC)c(OC)c2)N2Cc3ccccc3C2=O)cc1 (stereo not given)
→ -12	2.6
> O=C(Nc1ccc(F)c(Cl)c1)N1CCN2CCCCC2C1 (stereo not given)
→ 5	1.5
> CCOc1ccc(-c2cn3c(n2)sc2cc(C(=O)NCCCN4CCCCC4)ccc23)cc1
→ -1	-0.3
> CC(=O)c1ccc(NC(=O)c2cc3c([nH]c2=O)CC(c2ccccc2)CC3=O)cc1 (stereo not given)
→ -11	1.4
> Cc1cccc(NC(=O)c2sc3cccc(Cl)c3c2Cl)c1
→ 49	2.6
> O=C(CSc1nnc(-c2ccccc2Br)n1-c1ccccc1)c1ccc(F)cc1
→ 56	5.3
> CCN(CCCNC(=O)CSc1cc(=O)n(C)c2ccccc12)c1ccccc1
→ 0	0.0
> COc1ccc(C)cc1NC(=O)C(CCSC)NS(=O)(=O)c1ccc2c(c1)oc(=O)n2C (stereo not given)
→ -6	0.2

Further compounds follow.
SMILES	TRPML1 inh	TRPML1 ag
CC(=O)Nc1ccc(Nc2nc3c(S(=O)(=O)c4cccc(Cl)c4)nnn3c3ccsc23)cc1	15	2.1
O=C(Cn1cnc2c(oc3ccccc32)c1=O)Nc1ccc(OC(F)(F)F)cc1	-11	-0.8
CSc1ccc(C2c3c(-c4ccccc4O)n[nH]c3C(=O)N2Cc2ccncc2)cc1 (stereo not given)	4	0.8
COc1ccc(-c2nc(CSCC(=O)NCCc3ccccc3)c(C)o2)cc1	-8	0.1
Cn1nnc2c(NCc3c(F)cccc3F)ncnc21	-8	1.8
CC(C)c1ccc(NC(=O)CN(C)S(=O)(=O)c2ccc3c(c2)n(C)c(=O)c(=O)n3C)cc1	9	1.3
O=C(CSc1oc(-c2ccc(F)cc2)nc1S(=O)(=O)c1ccccc1)NC1CCCCC1	-5	-0.1
CCOC(=O)c1c(NC(=O)/C=C/c2ccc(OC)c(OC)c2)sc(C(C)=O)c1C	28	1.1
CCOC(=O)c1c(Nc2ccc(OCC)cc2)nnc(-c2ccccc2)c1-c1ccccc1	19	4.1
CCc1nn2c(=O)cc(COC(=O)c3ccccc3NC(=O)C3CCCCC3)nc2s1	46	0.6
O=C1COc2ccc(-c3cc(-c4ccccc4)c4c(n3)-c3cc(Cl)ccc3OC4)cc2N1	1	-0.3
CCOC(=O)C(Cc1c[nH]c2ccccc12)NC(=O)COc1ccc(CC)cc1 (stereo not given)	43	2.1
CN(C)c1ccc(CN(CC2CCCO2)C(=O)COc2ccc(Cl)cc2)cc1 (stereo not given)	2	0.5
Cc1ccc(-n2ncc(C(=O)NCCc3c[nH]c4ccccc34)c2C2CCN(C(=O)OC(C)(C)C)CC2)cc1C	-14	-0.2
Cc1ccn2c(Nc3c(C)cccc3C)c(-c3ccsc3)nc2c1	24	0.1
COc1cccc(NC(=O)Cn2c(=O)n(-c3ccccc3)c(=O)c3c4c(sc32)CCCC4)c1	-3	-0.9
CCOc1ccc(CCNC(=O)c2ccc(-c3nc(COc4ccc(C)cc4)c(C)o3)cc2)cc1	9	0.4
CCC1CN(C(=O)Nc2cccc(OC)c2)c2ccccc2O1 (stereo not given)	-26	2.0
O=c1[nH]c2ccc(NCc3ccc(-c4ccccc4)o3)cc2[nH]1	0	-0.7
COc1ccc(CNC(=O)c2ccc(Sc3ccc(Cl)cc3)c(NC(C)=O)c2)c(OC)c1	24	2.1
Cc1cccc(C)c1NC(=O)CCS(=O)(=O)c1ccc2c(c1)CC(C)N2C(=O)C1CC1 (stereo not given)	-1	2.0
Fc1ccc(-c2noc3ncnc(NCCc4ccc(Cl)cc4)c23)cc1	61	1.9
O=C(Nc1ccccc1C(=O)OCc1cc(=O)n2c3c(sc2n1)CCCC3)c1cccc(Cl)c1	-15	0.9
COc1ccccc1CNC(=O)CN1C(=O)CSc2c1c(C)nn2-c1ccccc1	-8	-1.2
Cc1ccc(OCCn2c(-c3ccc(Br)cc3)nc3ccccc3c2=O)cc1C	-7	-0.3
CCOC(=O)CSc1nc2c(sc3ccccc32)c(=O)n1CCO	12	0.6
CC1CCN(C(=O)c2cc(-c3ccc(Cl)cc3)on2)CC1	8	0.1
O=C(CC1N=C2c3ccccc3N=C(SCc3ccccc3Cl)N2C1=O)NCCc1ccccc1 (stereo not given)	12	2.1
Cc1nc2nc(SCC(=O)NC(C)c3ccccc3)nn2c(C)c1Cc1c(F)cccc1Cl (stereo not given)	12	1.1
CCc1ccc(CNC(=O)c2cc3c(=O)n(CC)c4ccccc4c3s2)cc1	-3	-0.6
Cc1ccccc1Nc1c(-c2ccc(N3CCOCC3)cc2)nc2ccc(Cl)cn12	28	0.2
O=C(Nc1ccc2nc(SCC(=O)N3CCc4ccccc43)sc2c1)c1ccccc1	-8	0.7
Cc1ccc(OCCCC(=O)Nc2sc3c(c2C(N)=O)CCCC3)cc1	17	1.5
COc1cccc2c(C)cc3nnc(SCC(=O)Nc4ccc(C)cc4)n3c12	29	2.3
COC(=O)c1ccc(OCC2c3cc(OC)c(OC)cc3CCN2C(=O)c2ccccc2C)cc1 (stereo not given)	-5	2.1
CCCCOc1cccc(NC(=O)CSc2nnc(C)s2)c1	9	-0.6
CCN(CC)C(=O)c1ccc(Nc2nnc(-c3ccc(C)c(S(=O)(=O)NC)c3)c3ccccc23)cc1	7	-0.1
CCCCN(Cc1cc2cc(C)ccc2[nH]c1=O)C(=O)c1cccc(Cl)c1	17	0.2
COc1ccc(Cl)c(Cn2cnc3c(cnn3C(C)(C)C)c2=O)c1F	-11	3.0
CC(=O)N1CCc2cc(Br)cc(S(=O)(=O)NCCc3cccc(C)c3)c21	-4	4.6
Cc1ccc(S(=O)(=O)N2CCN(C(=O)c3cc(-c4ccc(Br)cc4)n[nH]3)CC2)c(C)c1	25	2.5
CCOC(=O)C1=C(CS(=O)(=O)c2ccc(C(C)(C)C)cc2)NC(=O)NC1c1cccc(OC)c1 (stereo not given)	-9	-0.4
COc1ccc(-c2cc(C(=O)Oc3ccc(C)c(C)c3)c3ccccc3n2)cc1	-14	0.6
COc1ccc(-c2noc(C3CC(=O)N(c4ccccc4)C3)n2)c(OC)c1 (stereo not given)	2	1.1
CC(CCc1ccccc1)NC(=O)Cn1ncc2c3ccccc3n(Cc3ccccc3F)c2c1=O (stereo not given)	8	-0.7
COc1ccc2nc(NC(=O)c3cc(=O)c4cc(C)c(C)cc4o3)sc2c1	2	0.3
CCOC(=O)c1c(C)[nH]c(C)c1S(=O)(=O)N1CCCC(C(=O)Nc2ccc(C)cn2)C1 (stereo not given)	-11	-1.1
Cc1ccc(-c2nnc(Nc3ccc(Br)cc3)c3ccccc23)cc1S(=O)(=O)N1CCN(C)CC1	41	1.4
O=C(CSc1nccn1Cc1ccc(Cl)cc1)NC1CCCC1	9	1.8
COc1cccc(C(=O)NCCc2sc(-c3cccc(C)c3)nc2C)c1	4	4.2

Remaining list, next part
SMILES	TRPML1 inh	TRPML1 ag
Fc1ccc(-n2ncc3c(Nc4ccc(Oc5ccccc5)cc4)ncnc32)cc1	-11	-0.7
COc1ccccc1CCNC(=O)C(=O)NCC(c1ccco1)S(=O)(=O)c1ccccc1 (stereo not given)	6	1.7
COc1ccc(-c2cc(C(F)(F)F)nc(SCC(=O)N3CCCCC3)n2)cc1	-9	0.2
CCCc1nnc(NC(=O)Cc2coc3ccc(C)cc23)s1	-15	-0.2
Cc1ccc(-n2ncc(C(=O)NCCCN3CCc4ccccc4C3)c2C2CCN(C(=O)OC(C)(C)C)CC2)cc1C	-6	1.0
CC(=O)Nc1ccc(C)cc1-c1nc2ccccc2n(CC(=O)Nc2cc(Cl)ccc2C)c1=O	-5	-0.4
COCCCn1c(SCC(=O)Nc2ccc(OC)cc2)nc2c(sc3ccccc32)c1=O	-9	0.8
Cc1cccc(N2CCN(C(=O)c3cc4c(=O)[nH]c5ccc(C)cc5c4s3)CC2C)c1 (stereo not given)	-19	2.1
CCOc1ccc(NC(=O)Cn2c(=O)n(CCCCC(=O)NCc3ccc4c(c3)OCO4)c(=O)c3ccccc32)cc1	-7	-0.4
COc1ccc(N2CCN(S(=O)(=O)CCNC(=O)c3ccc(OC(C)C)cc3)CC2)cc1	37	2.1
COc1cc(OC)c(NC(=O)N2CCC(CN3CCOCC3)CC2)cc1Cl	-2	1.1
CCCn1c2ccccc2c2cnn(CC(=O)NCCc3ccc(OC)cc3OC)c(=O)c21	3	1.4
O=C(Nc1ccc(F)cc1C(F)(F)F)C1CCN(c2ncccn2)CC1	-3	-0.8
Cc1ccc(NC(=O)CN2CCN(C3CCCCC3)C(=O)C2=O)cc1C	-8	-0.2
CCOC(=O)c1ccc(N2C(=O)c3n[nH]c(C)c3C2c2ccccc2OC)cc1 (stereo not given)	-9	2.1
CCCOc1ccc(-c2cccc(NS(=O)(=O)c3cc(OC)ccc3OC)c2)nn1	29	0.9
CCOCCc1nn2c(=O)cc(COC(=O)c3ccccc3NC(=O)c3cccs3)nc2s1	2	0.9
CCC(=O)N1CCc2cc(Br)cc(S(=O)(=O)N3CCN(c4cccc(Cl)c4)CC3)c21	6	-0.2
Cc1nc2cccnc2n1-c1cccc(C(=O)N2CCN(c3ccc(Cl)cc3)CC2)c1	5	1.5
CCOC(=O)c1c(C)[nH]c(CCC(=O)NCc2cccc(OC)c2)c1C	16	4.6
O=C(NCc1ccc(F)cc1)c1ccc2oc(=O)n(Cc3ccccc3)c2c1	3	0.0

Screening results deposited in PubChem BioAssay by National Center for Advancing Translational Sciences (NCATS).
